Screening data (PubChem)
MenB inh: inhibitors of Mycobacterium tuberculosis MenB enzyme. MenB enzyme assay, absorbance read-out; some hits fall short of the stated cut. P9WNP5. AID 540299. 0.43% of 100,000 active. inhibition, %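 (about 12 µg/mL by stock and volumes)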;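 active = mean of two replicates above 30%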;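 note: 0% = no compound and 100% = wells with inactive enzyme; the first replicate is given; strong numbers were not always called active; inactives centre near -10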
Polio RdRp inh: poliovirus RNA polymerase inhibition; % elongation, % (compound at 16.7 µg/mL); P03300; AID 588519; 0.66% of 150,000 active; poliovirus polymerase elongation, fluorescence polarization; active compounds read low; in the data active = % elongation below about 90%; note: some results filed as inactive read as strong as hits
Target sequence (P03300 1749-2209 limits assumed): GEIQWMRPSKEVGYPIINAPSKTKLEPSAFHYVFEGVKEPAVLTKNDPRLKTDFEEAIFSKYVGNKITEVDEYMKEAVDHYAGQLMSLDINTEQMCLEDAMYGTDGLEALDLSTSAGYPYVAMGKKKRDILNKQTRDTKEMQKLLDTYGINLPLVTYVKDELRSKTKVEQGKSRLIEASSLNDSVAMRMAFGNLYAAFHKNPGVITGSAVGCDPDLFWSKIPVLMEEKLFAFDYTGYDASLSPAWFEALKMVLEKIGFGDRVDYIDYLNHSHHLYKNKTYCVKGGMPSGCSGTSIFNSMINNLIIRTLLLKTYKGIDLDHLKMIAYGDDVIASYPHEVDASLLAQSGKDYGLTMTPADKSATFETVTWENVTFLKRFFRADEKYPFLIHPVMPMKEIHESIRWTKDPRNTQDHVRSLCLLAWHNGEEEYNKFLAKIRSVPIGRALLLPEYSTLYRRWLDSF
MbtI inh: blocks the Mycobacterium tuberculosis siderophore enzyme MbtI; P9WFX0; purified MbtI enzyme, fluorescence intensity read-out; inhibition, %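 (about 17 µg/mL by stock and volumes)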; 0.89% of 100,000 active; AID 493033;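 active = above 50% in both replicates, above 80% if mildly self-fluorescent; inactive = the rest, strongly fluorescent compounds included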;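 note: 0% = mean of negative and 100% = mean of positive controls; one replicate is shown; some compounds called inactive have numbers as strong as hits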
Target sequence (P9WFX0 whole entry, looked up): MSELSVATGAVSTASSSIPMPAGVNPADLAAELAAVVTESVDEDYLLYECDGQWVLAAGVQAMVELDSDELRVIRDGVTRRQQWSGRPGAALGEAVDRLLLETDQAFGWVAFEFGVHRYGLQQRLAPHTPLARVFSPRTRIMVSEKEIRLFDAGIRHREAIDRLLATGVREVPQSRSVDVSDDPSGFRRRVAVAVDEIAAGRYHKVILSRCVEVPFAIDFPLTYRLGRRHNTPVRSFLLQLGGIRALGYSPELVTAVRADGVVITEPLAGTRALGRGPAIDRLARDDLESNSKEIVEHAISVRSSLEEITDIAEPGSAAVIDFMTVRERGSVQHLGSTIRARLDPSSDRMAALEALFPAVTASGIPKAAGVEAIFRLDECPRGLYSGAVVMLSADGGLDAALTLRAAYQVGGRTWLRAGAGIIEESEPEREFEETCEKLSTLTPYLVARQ
Polio RdRp inh intensity: recorded beside Polio RdRp inh, whose call it bears; % elongation; measured here: total intensity read-out; formula for this scale not given here;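 total fluorescence in place of polarization; lower means less elongation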
* hit, by the source's call; i = inactive; nt = not tested or not shown; & = joins results of further samples.

1) CCOC(=O)N1CCN(c2nc(C)c3c(n2)CC(c2ccco2)CC3=O)CC1 (stereo not drawn)
2) CC(C)[C@H](NC(=O)c1cccc(S(=O)(=O)N2CCCC2)c1)c1nc2ccccc2[nH]1
3) CCCn1c(SCn2nnc3ccccc3c2=O)n[nH]c1=O
4) Cc1cc(NC(=O)c2cccc(S(=O)(=O)N(C)C)c2)n(-c2ccccn2)n1
5) CC[n+]1ccc(C)c2ccccc21
6) COc1cc2c(cc1OC)C(Nc1nc(-c3ccccc3)cs1)=NC(C)(C)C2

screen / no.	1	2	3	4	5	6
MenB inh	-21	-28	-10	-30	-5	-5
Polio RdRp inh	101	nt	105	110	101	101
Polio RdRp inh intensity	107	nt	99	111	103	107
MbtI inh	1	-10	16	2	137	-6

7) CN(Cc1ccccc1Cl)C(=O)C1CC(=O)N(c2ccc3c(c2)OCCO3)C1 (stereo not drawn)
8) CCCCn1c(N)c(N(C)C(=O)CSc2nnc(-c3ccco3)n2CC)c(=O)[nH]c1=O
9) N#CC(C#N)=Cc1ccc(Sc2ccccc2)o1
10) O=C(C1CCCN(S(=O)(=O)c2ccccc2)C1)N1CCN(c2ccc(F)cc2)CC1 (stereo not drawn)
11) C/[N+]([O-])=C\c1ccc(C#N)cc1
12) COC(=O)c1ccc(NC(=O)c2ccc(Cl)cc2)s1

screen / no.	7	8	9	10	11	12
MenB inh	-35	-21	-159	-10	-19&7	nt
Polio RdRp inh	97	103	101	101	108&102	101
Polio RdRp inh intensity	93	101	102	100	107&107	103
MbtI inh	-4	-9	2	-7	25	72

13) CCc1ccc(/C=C2\C(=O)N(Cc3ccco3)C(C)=C2C(=O)OC)cc1
14) CCOC(=O)c1sc(NC(=O)Cc2n[nH]c(=O)c3ccccc23)cc1C
15) CCCCC(=O)Nc1ccccc1CC
16) Cc1ccc2cc(CCNS(C)(=O)=O)c(=O)[nH]c2c1
17) NC(=O)/C=C\c1cn(-c2ccccc2)nc1-c1ccc2c(c1)OCCO2
18) CCCCCNc1nc(C)c(C(=O)OCC)s1

screen / no.	13	14	15	16	17	18
MenB inh	-3	-26	-3	13	nt	-23
Polio RdRp inh	101	101	100	102	99	106
Polio RdRp inh intensity	101	106	103	103	104	105
MbtI inh	28	-6	-8	20	-3	1

19) CCOc1cc2c(cc1/C=C(\C#N)c1ccc(C(F)(F)F)cc1)OCO2
20) CCNC(=O)/C(=N\O)c1ccccc1
21) CCc1ccc(NC(=O)CCS(=O)(=O)c2ccc(Br)cc2)cc1
22) N#CCCn1nc(-c2ccccc2)c2c1Nc1ccccc1NC2c1ccc(F)cc1 (stereo not drawn)
23) Oc1ccc(/C=N/c2nccs2)cc1
24) O=C(COC(=O)c1ccc(N2CCCC2=O)cc1)c1ccc(OC(F)F)cc1

screen / no.	19	20	21	22	23	24
MenB inh	-9	-3	-20	-10	-35	9
Polio RdRp inh	103	102	104	103	104	100
Polio RdRp inh intensity	106	103	105	110	114	107
MbtI inh	-4	-24	-2	6	nt	5

Look-ups from the list.
Entry for `CCOC(=O)N1CCN(c2nc(C)c3c(n2)CC(c2ccco2)CC3=O)CC1` (stereo not drawn) in MenB inh: -21
Entry for `CCc1ccc(NC(=O)CCS(=O)(=O)c2ccc(Br)cc2)cc1` in Polio RdRp inh intensity: 105
Entry for `O=C(COC(=O)c1ccc(N2CCCC2=O)cc1)c1ccc(OC(F)F)cc1` in MbtI inh: 5
Entry for `Cc1cc(NC(=O)c2cccc(S(=O)(=O)N(C)C)c2)n(-c2ccccn2)n1` in Polio RdRp inh: 110
Entry for `Cc1ccc2cc(CCNS(C)(=O)=O)c(=O)[nH]c2c1` in Polio RdRp inh intensity: 103

Next part.
25) NCc1ccc(CN2CCCCCC2)cc1
26) c1ccc(-c2cn3ncsc3n2)cc1
27) COc1ccc2nc(-c3ccccc3)cc(C(=O)O)c2c1
28) COCCn1c(C2CC(=O)N(CC(C)C)C2)nc2ccccc21 (stereo not drawn)
29) CCC(C)OC(=O)COc1ccc2c(=O)c(Oc3ccccc3Cl)coc2c1 (stereo not drawn)
30) COc1ccccc1OCC#CCNCC1CCCO1 (stereo not drawn)

screen / no.	25	26	27	28	29	30
MenB inh	-16	11	nt	0	-5	-10
Polio RdRp inh	101	99	103	100	105	101
Polio RdRp inh intensity	100	101	109	103	106	103
MbtI inh	-5	-1	77	-33	-6	-9

31) COc1ccc(/C(C#N)=C/c2cccc(O)c2)cc1OC
32) COc1ccc(CN(C)C(=O)COc2ncnc3ccccc23)c(OC)c1OC
33) CC12CCC(=O)C=C1CCC1(C)C2(C)CCC2(C)C(C(=O)CO)CCC21C (stereo not drawn)
34) CCN(CC)Cc1c(O)ccc2cc(-c3nc4ccccc4[nH]3)c(=O)oc12
35) COc1ccccc1NCC(=O)NN
36) CSc1nnc(Cc2ccccc2)c(=O)[nH]1

screen / no.	31	32	33	34	35	36
MenB inh	-31	-29	-15	-225	-7	-5
Polio RdRp inh	99	100	89	46	108	102
Polio RdRp inh intensity	101	91	94	253	105	108
MbtI inh	i	12	nt	nt	nt	2

Quoted at random: 2 entries already listed, in no set order.
36) CSc1nnc(Cc2ccccc2)c(=O)[nH]1
7) CN(Cc1ccccc1Cl)C(=O)C1CC(=O)N(c2ccc3c(c2)OCCO3)C1 (stereo not drawn)

screen / no.	36	7
MenB inh	-5	-35
Polio RdRp inh	102	97
Polio RdRp inh intensity	108	93
MbtI inh	2	-4

The list goes on.
37) CCCn1c(-c2ccccc2)nc2ccccc21
38) CCOC(=O)c1ccc(OCC(=O)OC)cc1
39) OC1(C(F)(F)F)CC(c2nccs2)=NN1 (stereo not drawn)
40) N#Cc1ccc(CN2C(=O)CC3(CCCC3)C2=O)cc1
41) N#Cc1c(NC(=O)C#Cc2ccccc2)sc2c1CCC2
42) COc1ccc(CN(C)C(=O)COc2ccc(-c3nnco3)cc2)c(OC)c1OC

screen / no.	37	38	39	40	41	42
MenB inh	-10	-10	-11	-8	-17	15
Polio RdRp inh	97	103	101	100	102	104
Polio RdRp inh intensity	106	103	103	104	102	113
MbtI inh	102	-16	-10	-9	5	-8

43) CN(C(=O)Cn1ncc2c([nH]c3ccccc32)c1=O)c1ccccc1
44) COc1cc(Cl)c(NC(=O)CC(C)n2nc(C)cc2C)c(OC)c1 (stereo not drawn)
45) O=C(c1cnc2nc3ccccc3n2c1)c1cc(F)ccc1O
46) Cc1cc(C)cc(NC2=NCCCS2)c1
47) CCCN1CCC(N2CCC(C(=O)OCC)CC2)CC1
48) CC(=O)Nc1nonc1N=Cc1ccc(F)cc1

screen / no.	43	44	45	46	47	48
MenB inh	5	-19	-8	-33	6	-3
Polio RdRp inh	103	100	48	99	100	95
Polio RdRp inh intensity	103	104	249	99	104	102
MbtI inh	38	-15	-1	-30	-11	nt

49) CC(C)NC(=O)c1c(O)nc2ccccn2c1=O
50) CN1C2CCC1CC(OC(=O)CCN1CCOCC1)C2 (stereo not drawn)
51) COC(=O)CCc1c(C)[nH]c(=S)[nH]c1=O
52) Cc1ccc2nc(NCn3nc(-c4ccccc4)oc3=S)sc2c1
53) O=c1ccnc(NCCc2ccccc2)[nH]1
54) COc1ccc(C(=O)N(CC#N)CC#N)cc1

screen / no.	49	50	51	52	53	54
MenB inh	-21	1	-9	-2	19	-6
Polio RdRp inh	101	98	103	99	99	104
Polio RdRp inh intensity	100	98	104	101	102	106
MbtI inh	58	-2	-209	6	0	nt

55) CC(C)(C)c1ccc(/C=C2/NC(=O)N(Cc3ccc(Br)cc3)C2=O)cc1
56) CC/C=C\C/C=C\C/C=C\C/C=C\C/C=C\C/C=C\CCC(=O)O
57) CCN(CC)CCSc1ccc(-c2ccccn2)nn1
58) O=C(c1ccco1)N1CCN(C(c2ccccc2)c2nnnn2Cc2ccccc2)CC1 (stereo not drawn)
59) COC(=O)c1cc(-c2cccs2)nc2c1c(C)nn2-c1ccccc1
60) CCOC(=O)N1CCN(S(=O)(=O)c2ccc(C(=O)Nc3ccc4nc(SC)sc4c3)cc2)CC1

screen / no.	55	56	57	58	59	60
MenB inh	-3	3	-9	-7	16	4
Polio RdRp inh	100	101&101	108	99	106	101
Polio RdRp inh intensity	102	100&99	110	102	101	103
MbtI inh	-7	8	1	-2	3	9

61) CCN1CCCC1CNC(=O)NC1CC(=O)N(c2ccc(C)cc2)C1 (stereo not drawn)
62) CC/C(=N\O)c1ccc(CCCCCC(=O)O)s1
63) Cc1cc(OC(=O)C2COc3ccccc3O2)cc(C)c1Cl (stereo not drawn)
64) O=C(O)C1CCN(C(=O)c2cccs2)CC1
65) NCCCOC1CCCCC1
66) Cc1cccc(-n2cnc3sc4c(c3c2=O)CCCC4)c1

screen / no.	61	62	63	64	65	66
MenB inh	-13	24	-19	-10	-25	nt
Polio RdRp inh	98	99	102	102	102	101
Polio RdRp inh intensity	106	102	107	103	97	103
MbtI inh	-12	3	-4	-4	21	-7

67) CN1C(=O)NC(c2cccnc2)C(C(=O)c2cccs2)C1(O)C(F)(F)F (stereo not drawn)
68) NC(=S)N/N=C/C=C/c1ccccc1
69) CC(C)c1ccc(-n2c(NN)nc3ccccc3c2=O)cc1
70) O=C(NC(CO)Cc1ccccc1)c1ccccc1C(F)(F)F (stereo not drawn)
71) Cc1ccc2cc(CN(CCN(C)C)C(=O)NC3CCCCC3)c(=O)[nH]c2c1
72) O=C(CSc1nnc(-c2ccccc2F)n1C1CC1)c1ccc(Cl)s1

screen / no.	67	68	69	70	71	72
MenB inh	-15	6	5	nt	-65	2
Polio RdRp inh	101	99	103	101	103	108
Polio RdRp inh intensity	103	102	97	105	99	101
MbtI inh	8	19	16	-9	11	10

73) Cc1[nH]c2ccccc2c1C=NCCc1ccncc1
74) O=C(Nc1cccc(Cl)c1Cl)C1CC(=O)N(Cc2ccccc2)C1 (stereo not drawn)
75) O=C(c1ccco1)c1cn(CCCOc2ccccc2)c2ccccc12
76) O=C(O)Cn1nnnc1SCC(=O)Nc1ccc(F)cc1F
77) CC1=C(C)CC(C(=O)Nc2cccc(C)c2C)C(C(=O)O)C1 (stereo not drawn)
78) COC(=O)c1ccc(CSc2nc(N)c3c4c(sc3n2)CCCC4)o1

screen / no.	73	74	75	76	77	78
MenB inh	-15	6	-7	7	7	1
Polio RdRp inh	109	102	101	101	104	100
Polio RdRp inh intensity	119	106	102	102	105	107
MbtI inh	nt	nt	5	10	nt	10

Complete entries from above. Order of screens: MenB inh, Polio RdRp inh, Polio RdRp inh intensity, MbtI inh
Entry for COC(=O)c1ccc(CSc2nc(N)c3c4c(sc3n2)CCCC4)o1 : 1, 100, 107, 10
Entry for O=C(O)Cn1nnnc1SCC(=O)Nc1ccc(F)cc1F : 7, 101, 102, 10

Later entries:
79) CCOC(=O)C1CCCCN1S(=O)(=O)c1ccc2c(c1)CC(C)N2C(=O)C1CC1 (stereo not drawn)
80) Cc1cc2ccccc2c(=O)n1CC(=O)NCC(=O)Nc1ccc(F)cc1
81) CCOC(=O)c1ccc(NC(=O)CNC(=O)C23CC4CC(CC(C4)C2)C3)cc1
82) CCN(C(=S)Nc1cccnc1)c1ccccc1
83) CCOC(=O)C1=C(Sc2nnc3nc(C)cc(C)n23)NC(=O)NC1c1ccccc1 (stereo not drawn)
84) Clc1ccc2nc(NC3=NCN(CCN4CCOCC4)CN3)nc(-c3ccccc3)c2c1

screen / no.	79	80	81	82	83	84
MenB inh	-26	-22	3	-9	16	-6
Polio RdRp inh	103	102	99	110	99	102
Polio RdRp inh intensity	102	102	102	114	101	101
MbtI inh	-15	11	-5	nt	5	-1

85) Cc1cccn2c(=O)c(/C=N/O)c(N3CCCCC3)nc12
86) c1ccc2[nH]c(SCc3nc4ccccc4o3)nc2c1
87) CC[C@H]1CN2CCC1C[C@@H]2[C@@H](O)c1ccnc2ccc(OC)cc12 (stereo partly drawn)
88) Cc1cccc(N2CCN(CCCNC(=O)CCN3C(=O)c4cccnc4Sc4ccccc43)C(C)C2)c1 (stereo not drawn)
89) COc1cccc(C(=O)NC2=NC(c3ccccc3Cl)CC(=O)N2)c1 (stereo not drawn)
90) COc1ccc(C(CN)c2c[nH]c3ccccc23)cc1 (stereo not drawn)
91) COc1cc2c(cc1OC)C(Cc1ccc(O)cc1)N(C)CC2 (stereo not drawn)
92) O=C(COc1ccc(Oc2ccccc2)cc1)NCc1cn2ccsc2n1

screen / no.	85	86	87	88	89	90	91	92
MenB inh	-22	-5	1	-4	-4	-21	-32	-19
Polio RdRp inh	101	104	102	102	104	102	101	107
Polio RdRp inh intensity	95	99	97	103	102	101	100	107
MbtI inh	1	19	87	-6	0	4	-3	16
